# VACV Venus inh = vaccinia inhibition (Venus reporter). Potency, µM (series often up to 36.5 µM), without a hit: at the top dose activity change, negative = inhibition, most hits filed as inhibitors. actives 0.46% (n = 330,000). Vaccinia virus Venus reporter expression, fluorescence. AID 720580; active means well fitted inhibition curve with a large enough effect; inconclusive means small, poorly fitted or top-dose-only effect; inactive means no such curve, though single readings can be large or run the other way; tested in A549 cells; further: nearly all actives have a fitted effect of over 30% in size; inactives centre near -10
# Vaccinia mCherry = vaccinia inhibition (mCherry reporter); Vaccinia virus mCherry reporter infection, fluorescence; about a quarter of the inactives have no number; Potency, µM (titrated, usually from 36.5 µM), without a hit: at the highest dose activity change, negative = inhibition, actives largely listed as inhibitors; actives 0.63% (n = 310,000); AID 720579; active = well fitted inhibition curve with a large enough effect; inconclusive = small, poorly fitted or top-dose-only effect; inactive = no such curve, though single readings can be large or run the other way; tested in A549 cells; further: nearly all actives have a fitted effect of over 35% in size; inactives centre near -10
# * marks the source's active call; other numbers are inactive results; i = inactive; ? = inconclusive; · = no result given; & = joins results of further samples; [ ] = remark or other dose. On the % scale 0 is the no-effect control and ±100 the full control effect; potency means the concentration at half of the fitted maximal effect.
# Values run as follows: VACV Venus inh, Vaccinia mCherry
CN(C)c1nc(N)nc2c1ncn2C1OC(CO)CC1O (centres undefined)
→ 7%, -4%
Cc1ccccc1C(=O)Nc1nnc(S(=O)(=O)N(C)Cc2ccco2)s1
→ -6%, -10%
N/C(=N\OC(=O)c1ccccc1Cl)c1ccncc1
→ -10%, -1%
O=C(NCc1ccc(C(F)(F)F)cc1)c1cccc2c(-c3cccnc3)coc12
→ 0%, 10%
O=C(NCc1ccc2c(c1)OCO2)c1ccc(S(=O)(=O)C(F)F)cc1
→ -12%, -12%
O=C(Nc1ccc(F)cc1Cl)C1=COCCO1
→ -26%, -10%
CCOCCN1CCN(C(=O)CN2CCCC2=O)CC1
→ -12%, -14%
COc1ccc(Nc2ncc(C(=O)Nc3ccc(F)cc3F)c3ccccc23)cc1
→ -14%, -17%
CCOc1ccc(C2/C(=C(\O)c3ccc(OC)c(OC)c3)C(=O)C(=O)N2c2cc(C)on2)cc1OC (centres undefined)
→ -1%, ·
CC1=Nc2cc(C(=O)O)ccc2Sc2ccc(Br)cc21
→ -18%, -1%
CCCCN(C)Cc1c(C)[nH]c2ccccc2c1=O
→ -11%, 5%
CCCCCCCC(=O)Nc1cc(C(=O)NCCC)ccc1N1CCC2(CC1)CC(c1ccccc1)=NO2
→ -17%, -10%
O=c1c2ccccc2n(Cc2c(F)cccc2Cl)c(=O)n1CCc1ccccc1
→ -6%, -9%
CCCn1cc(S(=O)(=O)CC(=O)Nc2ccc(OC)cc2OC)c2ccccc21
→ -4%, i
COCCNC(=O)c1ccc2c(c1)nc(C)n2-c1cccc(F)c1
→ -13%, -3%
Cn1cc(CC(=O)NCCCN2CCCC2=O)c2ccccc21
→ -10%, -4%
CN1CCN(CCC(=O)N/N=C/c2cc([N+](=O)[O-])ccc2O)CC1
→ -13%, -25%
O=C(c1ccco1)N1CCN(c2ncccn2)CC1
→ -7%, i
CCc1cccc(C)c1NC(=O)c1cc(C)nc2c1c(C)nn2-c1cccc(Cl)c1C
→ -4%, -3%
COc1cc(CCN2C(=O)c3cccc4cccc(c34)C2=O)c(S(=O)(=O)NCCO)cc1OC
→ -8%, -10%
Cc1ccccc1NC(=O)CSc1nc(-c2ccc(F)cc2)nc2c1Cc1ccccc1O2
→ -9%, -6%
COc1ccc(OC)c(-c2cc(C(=O)Nc3c(C)nn(Cc4ccccc4Cl)c3C)no2)c1
→ -27%, -13%
Cc1ccccc1Nc1nc(N)nc(COC(=O)c2c(C)noc2C)n1
→ -5%, -30%
Cc1ccc(-n2ncc(Cl)c2C(=O)NC2CC2)cc1
→ -8%, i
CCOC(=O)c1cnc2ccc(OCC)cc2c1NCCc1ccc(OC)c(OC)c1
→ -15%[7.34 µM], -11%[7.34 µM]
CC1CCc2cc(F)ccc2N1C(=O)C12CCC(C)(C(=O)O1)C2(C)C (centres undefined)
→ -13%, -17%
CCOc1ccccc1N1CC(C(=O)N(C)Cc2cccnc2)CC1=O (centres undefined)
→ -1%, i
O=C(CCN1C(=O)c2ccccc2Sc2ncccc21)Nc1ccc(F)cc1
→ -11%, -16%
COc1ccc(-n2nc3c(c2NC(=O)CBr)CSC3)cc1
→ -6%, i
O=C(N/N=C/c1ccccc1C(F)(F)F)c1ccc(O)cc1
→ -19%, -14%
Cc1ccc(CC(=O)N2CCC(c3nc4c(nnn4Cc4ccccc4)c(=O)[nH]3)CC2)cc1
→ -22%, -19%
c1ccc2c(c1)nc(N1CCCCC1)c1ccccc12
→ -4%, i
O=C(CSc1nnc2ccc(-c3cccnc3)nn12)Nc1cccc(F)c1
→ -17%, i
COc1cc(CNc2ccc3c(c2)ncn3C(C)C)cc(OC)c1OC
→ -7%[7.34 µM], i[7.34 µM]
O=[N+]([O-])c1cccc(C=NNc2ccccc2)c1
→ -22%, ?
CCN1C(=O)/C(=C/c2cccs2)S/C1=N\S(=O)(=O)c1ccc(C)cc1
→ -10%, i
Cn1c(=O)c2c(SC3CCCC3)nc(C3CC3)nc2n(C)c1=O
→ -8%, ?
Cc1nc(N/N=C\c2ccc3c(c2)OCO3)sc1C
→ ?, 16µM*
NC(N)=NC(N)=Nc1ccccc1
→ -9%&-8%, -2%&-16%
C[C@@H](NCCCc1cccc(C(F)(F)F)c1)c1cccc2ccccc12
→ ?, -28%

# Single entries from above.
# COc1cc(CCN2C(=O)c3cccc4cccc(c34)C2=O)c(S(=O)(=O)NCCO)cc1OC – Vaccinia mCherry = -10%
# N/C(=N\OC(=O)c1ccccc1Cl)c1ccncc1 – VACV Venus inh = -10%
# CC1CCc2cc(F)ccc2N1C(=O)C12CCC(C)(C(=O)O1)C2(C)C (centres undefined) – Vaccinia mCherry = -17%

# (more compounds)
# Values run as follows: VACV Venus inh, Vaccinia mCherry
COc1ccc(NC(=O)C(=O)NCc2ccco2)c(OC)c1
→ 1%, -11%
CN(Cc1ccccc1)C(=O)COc1ccccc1
→ -16%, -3%
COc1cc(OC)cc(C(=O)N[C@H](C(=O)OCC(=O)Nc2ccc(C(N)=O)cc2)C(C)C)c1
→ 3%, i
CC(C)(C)OC(=O)N1CCC(c2nnc(SCc3ccccc3Cl)o2)CC1
→ -7%, -18%
CCC1CCc2c(sc(NC(=O)C3c4ccccc4Oc4ccccc43)c2C(N)=O)C1 (centres undefined)
→ -11%, -22%
CN(C)c1ccc(CNC(=O)c2ccccc2NC(=O)c2nsc3ccccc23)cc1
→ -24%, -10%
O=C(NCCCN1CCOCC1)c1cc(-c2ccc(Cl)s2)nc2ccccc12
→ -13%, -7%
COc1cccc(N2CCN(Cc3ccsc3)CC2)c1
→ ?, ·
Cc1ccc(S(=O)(=O)Nc2ncnc3sc(C)c(C)c23)cc1
→ -9%, -15%
Cc1c(Cl)cccc1NC(=O)c1ccc(NC(=O)N2CCSc3ncccc32)cc1
→ -4%, -9%
CC(Cc1ccccn1)NC(=O)c1ccc(OC2CCN(CCc3ccccc3)CC2)cc1 (centres undefined)
→ -11%, -16%
CCOC(=O)c1c(C)oc2ccc(OCC(=O)C(C)(C)C)cc12
→ -8%, -11%
Cc1cc(C(=O)OCC(=O)NCc2ccccc2)c(C)o1
→ -19%, -1%
CCCCn1c(N)c(N(CCOC)C(=O)c2cnc(C)cn2)c(=O)[nH]c1=O
→ -9%, i
CC(CCc1ccccc1)NC(=O)Cc1ccccc1 (centres undefined)
→ -6%, -15%
Cc1nc(-c2ccc(S(=O)(=O)Nc3ccc(Cl)c(C(F)(F)F)c3)cc2)co1
→ -13%, -12%
Nc1cc(C(=O)c2cccs2)ccc1Cl
→ -5%, -10%
COc1ccc(-c2cc(CNC(=O)CN(C)Cc3ccccc3)on2)cc1
→ -13%, ?
Cc1noc(C)c1COc1ccccc1C(=O)N(C)CC(=O)Nc1ccc(Cl)c(Cl)c1
→ -30%, -7%
O=C1N=NC(=O)N1c1ccccc1
→ -3%, -14%

# A portion from the list above:
# Values run as follows: VACV Venus inh, Vaccinia mCherry
Cc1nc(-c2ccc(S(=O)(=O)Nc3ccc(Cl)c(C(F)(F)F)c3)cc2)co1
→ -13%, -12%
Nc1cc(C(=O)c2cccs2)ccc1Cl
→ -5%, -10%
COc1ccc(-c2cc(CNC(=O)CN(C)Cc3ccccc3)on2)cc1
→ -13%, ?

# Next part:
# Values run as follows: VACV Venus inh, Vaccinia mCherry
CC(C)Oc1ccc(C(=O)Nc2c3c(nn2C(C)(C)C)CS(=O)(=O)C3)cc1
→ -12%, i
COC(=O)CN(C#N)c1nc(NC(C)C)nc(OC)n1
→ -20%, ?
N#Cc1nc(-c2cccs2)oc1NCCN1CCOCC1
→ 1%, i
CC1(C)CC(N=c2cc(-c3ccccc3)oc3ccc(Cl)cc23)CC(C)(C)N1
→ ?, ?
Cc1nn(C(C)C(=O)NC2CCCCCC2)c(=O)c2nn(-c3ccccc3)c(C)c12 (centres undefined)
→ -5%, -13%
O=C(NCCCN1CCOCC1)c1cc(S(=O)(=O)N2CCOCC2)ccc1Cl
→ 2%, -4%
Cc1ccccc1NC(=O)NCc1cccnc1
→ -10%, i
COc1ccc2c(c1)-c1nc(NC(=O)c3cc(OC)c(OC)c(OC)c3)sc1CC2
→ -18%, -25%
CCOc1ccc(CCNC(=O)CN2CCN(Cc3ccc(F)cc3)C2=O)cc1OCC
→ -18%, ·
Cc1ccc(C(O)c2ncc(-c3ccccc3C(F)(F)F)[nH]2)cc1F (centres undefined)
→ -7%, 15%
S=c1[nH]nc(CSCc2ccccc2Cl)n1C1CCCCC1
→ -7%, -4%
Cc1ccc(NC(=O)C2CCCN2S(=O)(=O)c2ccc3c(c2)n(C)c(=O)c(=O)n3C)cc1 (centres undefined)
→ -13%&-8%, -12%
CC1CCCC(NC(=O)COC(=O)c2c[nH]c(=O)[nH]c2=O)C1C (centres undefined)
→ 1%, ·
CC(C)(C)NC(=O)NCC1CCCC1NC(=O)NC(C)(C)C (centres undefined)
→ -6%, i
COc1ccc(C(=O)Nc2cc(C)c(O)c(-c3nc4ccccc4s3)c2)cc1OC
→ -7%, -10%
O=C1c2cccc3cccc(c23)C(=O)N1/N=C/c1ccc(O)cc1O
→ -2%, 1%
COc1ccc(CCNC(=O)C(=O)NCC2CCCN2S(=O)(=O)c2cccs2)cc1 (centres undefined)
→ -18%, -1%
COc1cccc(NC(=O)CCN2CCOCC2)c1
→ -7%, -15%
COc1ccccc1NC(=O)Cn1cnc2sc(C)c(S(=O)(=O)N3CCCCC3)c2c1=O
→ -13%, i
COc1ccc(S(=O)(=O)N2CCCCCC2)cc1C(=O)N1CCCC(C(F)(F)F)C1 (centres undefined)
→ -16%, -6%
COC(=O)Cn1c(=O)c(C)nc2ccccc21
→ 2%, i
CC1(C(=O)NS(=O)(=O)c2ccc(Cl)cc2)CCN1C(=O)c1ccccc1CCc1ccccc1 (centres undefined)
→ -15%, 27%
O=C(NCc1cccc(F)c1)c1cccc(OC2CCN(C(=O)C3CC3)CC2)c1
→ ?, -8%
CCOC(=O)C1(Cc2cccc(OC)c2)CCCN(S(=O)(=O)N(C)C)C1 (centres undefined)
→ -10%, -6%
N#Cc1ccc(COC(=O)CSc2nnc(N)s2)cc1
→ -9%, -11%
O=C(NC1CCc2ccccc21)c1cc(COc2cncc(Cl)c2)on1 (centres undefined)
→ -19%, ?
CCSc1ccc(-c2ccco2)nn1
→ -5%, -9%
Cc1oc(-c2ccccc2)nc1C(=O)OCC(=O)NCc1ccc(F)cc1
→ -10%, -3%
CCc1c(C#N)c(SCc2c(C)noc2C)nc2c1C(=O)CC(C)(C)C2
→ -20%, -19%
O=c1[nH][nH]c2c1[C@H](c1ccccc1)O[C@H](C1CCCCC1)C2
→ -19%, 17%
COc1ccc(CC(=O)NCCS(=O)(=O)N2CCN(c3ccc(F)cc3)CC2)cc1OC
→ -11%&-14%, -15%&-17%
COc1ccc(C(=O)NCCS(=O)(=O)N2CCCCCC2)cc1
→ -8%, i
Cc1ccc(S(=O)(=O)NC2=NCCC2)cc1
→ -17%, i
CC1(C(=O)NS(=O)(=O)C2CC2)CCN(C(=O)c2ccccc2F)C1 (centres undefined)
→ -11%, 21%
Fc1ccccc1/C=N/NC(=S)Nc1ccc(Cl)cc1Cl
→ -29%, -29%
Cc1ccc(N2C(=O)Cc3ccccc3C2=O)cc1
→ -8%, -7%
CN(C)CCNc1nc(S(=O)(=O)c2ccccc2)c(Cl)s1
→ -13%, i
COc1ccc(C)cc1N(C(=O)c1snc(C(N)=O)c1N)C(C(=O)NC1CCCCC1)c1ccc(C)o1 (centres undefined)
→ -24%, -22%
Cc1ccc(-c2nnn(CC(=O)N(CC(=O)NC3CCCCC3)c3cnc4ccccc4c3)n2)o1
→ -12%, -11%
CCn1nc(C)cc1C(=O)N1CCCC(Nc2ccc(F)c(F)c2)C1 (centres undefined)
→ -13%, -11%
Cc1cc(C)c(C(O)c2ncc(-c3ccccc3F)[nH]2)c(C)c1 (centres undefined)
→ -6%, 6%
O=C(c1ccco1)c1cn(CC(=O)N2CCCCCC2)c2ccccc12
→ 1%, i
O=C(O)C1CC(O)CN1S(=O)(=O)c1cccs1 (centres undefined)
→ -14%, -10%
COc1ccccc1NC(=O)CN1CCN(CC(=O)Nc2ccc3c(c2)OCCO3)CC1
→ -18%, ·
O=c1[nH]c(=O)n(Cc2ccccc2)c(O)c1/C=N/NCCO
→ -10%, -14%
CC(C)/C(O)=C1/C(=O)OC(c2ccoc2)[C@@]2(C)C(O)C(O)[C@@]34OC5(C)OC67CC(C)(C(O)[C@@]6(O)C(O)[C@@]3(O5)C12)C(CC(=O)O)[C@@]74C (some centres undefined)
→ -8%, -21%
Cc1c(S(=O)(=O)N(C)C2CCCCC2)c(=O)n(C)c(=O)n1C
→ 4%, -10%
COc1ccc2c(c1)c(=O)c(C(=O)c1ccccc1)cn2CC(=O)Nc1ccc2c(c1)OCCO2
→ -2%, -3%
COc1ccc(N2CCN(C(=O)c3cc4c(=O)n(Cc5cccs5)ccc4nc3C)CC2)cc1
→ -13%, -9%
Clc1ccccc1-c1nnc(SCc2nc(-c3ccccc3)no2)n1-c1ccccc1
→ -16%, -21%
COc1ccc(/C=C(/NC(=O)/C=C/c2ccccc2)C(=O)N2CCOCC2)cc1
→ -1%, -9%
O=C(CNCc1ccc(F)cc1)Nc1ccc(S(=O)(=O)N2CCOCC2)cc1
→ -2%, i
CCCCn1c(N)c(N(CC(C)C)C(=O)CCNC(=O)c2ccc(Br)cc2)c(=O)[nH]c1=O
→ -6%, -12%
N#C/C(=C/c1ccco1)C(N)=S
→ -17%, i
CN1CCn2c1nc(N1CCOCC1)nc2=O
→ -3%, -11%
COc1ccc(-c2nc(-c3ccccc3)c(-c3ccccc3)[nH]2)cc1Br
→ -12%, -5%

# Compound activity: PubChem BioAssay, National Center for Advancing Translational Sciences (NCATS)
